Screens (PubChem)
Anaer choline gr: growth inhibitors of anaerobic choline-fed gram-negatives, minimal medium, absorbance; Gram-negative bacterium anaerobic choline minimal medium; hits give low values; many inactives read as strong as hits in the columns shown; calls only; 55,000 compounds, 0.2% hits;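 active means growth z-score on choline under -2 at 7 or 20 h with little or no fall on glycerol, limits in tiers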;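 further: stock transfer was 300 nL into about 50 µL; the organism is E. coli; final concentration not given here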
Anaer choline gr early: also measured in Anaer choline gr; calls as there; z-score; measured here: choline growth z-score, timepoint 1;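 score of optical density at 7 h as mean of two plates; lower means less growth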
* marks the source's active call; other numbers are inactive results; i = inactive; & = joins results of further samples.

Results follow in this order: Anaer choline gr, Anaer choline gr early
> O=C(CCn1cnc2cc(-c3noc(C4(c5ccccc5)CC4)n3)ccc21)N1CCCC1
→ i, 0.4
> CC(C)CNC(=O)c1cccc(-c2ccc(N3CCCC3)nn2)c1
→ i, 0.52
> COc1ccc(-c2cc(C(F)(F)F)n3ncc(C(=O)NCc4cnn(C)c4C)c3n2)cc1OC
→ i, -0.12
> NS(=O)(=O)c1ccc(NC(=O)c2cc(=O)n3c(nc4ccccc43)s2)cc1
→ i, 0.62
> Cc1ccc(CNC(=O)C2(C)CCCN(C(=O)NCCC(C)C)C2)cc1 (stereo not given)
→ i, -0.92
> CCCc1nnc2sc(COc3ccc(C)c(C)c3)nn12
→ i, 1.4
> CC(C)NS(=O)(=O)c1cc(C(=O)N2CCCC2)cs1
→ i, -1.4
> CC(C)OC(=O)C1=CN(C(=O)c2ccc(F)c(F)c2)CC(C)(C)c2c1[nH]c1ccccc21
→ i, 0.91
> C=CCn1c(O)c(C2=NNC(c3ccc4c(c3)OCO4)C2)c(=O)[nH]c1=O (stereo not given)
→ i, 0.07
> CCN(CC)C(=O)c1ccc(-c2nc3cc(NS(=O)(=O)c4ccccc4Cl)ccc3n2C)cc1
→ i, 0.07
> COc1cc(OC)cc(N2C(=O)c3cc(C)nn3CC2(C)C(=O)NCc2ccccc2)c1 (stereo not given)
→ i, 1
> CCCCOc1ccc(OCCSc2nc3ccccc3n2CC(=O)O)cc1
→ i, -0.49
> CC1(C(=O)NCc2ccc(F)cc2)CCCN(C(=O)c2cccc(Cl)c2)C1 (stereo not given)
→ i, -0.48
> COC(=O)Cn1c(=O)oc2cc(S(=O)(=O)N3CCOCC3)ccc21
→ i, -0.24
> Cc1ccc(NC(=O)CCc2nc(-c3ccc(S(=O)(=O)N4CCCC4)cc3)no2)c(C)c1
→ i, 1.8
> CCc1ccc(NC(=O)C(CC)n2nc(-c3ccc(C)cc3)ccc2=O)cc1 (stereo not given)
→ i, 1.7
> COCCCNC(=O)c1cc(-c2ccc(OC)c(OC)c2)nc2n[nH]c(-c3ccc(OC)cc3)c12
→ i, -0.75
> CSc1ccc(N2C(=O)[C@@H]3Cc4ccccc4CN3C2=O)cc1
→ i, 0.48
> CCCn1c(C)ccc(-c2noc(CCCC(N)=O)n2)c1=O
→ i, 0.39
> COCCCNC(=O)c1cc2cc3ccc(C)cc3nc2s1
→ i, -0.33

Overlap with the part before: 4 entries; new compounds follow.
Results follow in this order: Anaer choline gr, Anaer choline gr early
> COCCCNC(=O)c1cc(-c2ccc(OC)c(OC)c2)nc2n[nH]c(-c3ccc(OC)cc3)c12
→ i, -0.75
> CSc1ccc(N2C(=O)[C@@H]3Cc4ccccc4CN3C2=O)cc1
→ i, 0.48
> CCCn1c(C)ccc(-c2noc(CCCC(N)=O)n2)c1=O
→ i, 0.39
> COCCCNC(=O)c1cc2cc3ccc(C)cc3nc2s1
→ i, -0.33
> CC(NC(=O)CC1(CC2=NS(=O)(=O)c3ccccc3N2)CCCC1)c1ccccc1 (stereo not given)
→ i, -0.13
> Cc1ccsc1C(=CCCN1CCCC(C(=O)O)C1)c1sccc1C (stereo not given)
→ i, 0.59
> CCC(C)(C)NCc1ccc2c(c1)n(C)c(=O)n2C
→ i, 1.3
> Cc1cc(N2CCC(NC(=O)Nc3ccc(F)cc3F)CC2)n2ncnc2n1
→ i, 0.88
> CCN(CC)CCNC(=O)CC1CCN(S(=O)(=O)c2cccs2)CC1
→ i, 0.31
> O=C(c1cc2c(s1)-c1ccccc1SC2)N1CCC(Cc2ccccc2)CC1
→ i, 0.68
> Cn1nc(C(=O)NCCCN2CCOCC2)c2c1-c1ccsc1CC2
→ i, -1.1
> Cc1ccc(N2CCN(C(=O)C3CCN(c4ccc(N5CCOCC5)nn4)CC3)CC2)c(C)c1
→ i, 0.34
> N#Cc1nc(-c2ccc(S(=O)(=O)N3CCCC3)cc2)oc1NC1CCCCC1
→ i, 2.3
> Cc1cc2c(cc1C(=O)NCc1ccc3c(c1)OCCCO3)OCCCO2
→ i, -0.16
> O=S(=O)(NCc1ccccc1)c1ccc(N2CCCCS2(=O)=O)cc1
→ i, -0.27
> Cc1nnc(N2CCCC(C(=O)NCc3cccnc3)C2)c2nn(-c3ccc(Cl)cc3)c(C)c12 (stereo not given)
→ i, -0.95
> O=C1CCCc2cc(S(=O)(=O)NCC3CCC(C(=O)NCCC4=CCCCC4)CC3)ccc2N1 (stereo not given)
→ i, 0.24
> CN(CCCNC(=O)CCc1nnc2n(Cc3ccccc3)c(=O)c3ccccc3n12)Cc1ccccc1
→ i, -0.42
> Cc1c(-c2nc(-c3ccc(Cl)cc3)no2)sc2ncn(CC(=O)N(C)c3ccccc3)c(=O)c12
→ i, -1.7
> COC(=O)c1ccccc1NC(=O)Cn1c(=O)c2cccn2c2ccc(F)cc21
→ i, -0.13
> Cc1nnc(-c2ccc3ccn(CC(=O)N4CCN(Cc5ccc6c(c5)OCO6)CC4)c3c2)o1
→ i, 0.23
> CC(C)n1nccc1-c1csc(S(=O)(=O)N2CCCCC2)c1
→ i, 0.09
> CNc1oc(-c2ccc(S(=O)(=O)N(C)C)cc2)nc1C#N
→ i, -0.94
> CC(=O)Nc1ccc(-c2noc(C3CCCN(C(=O)c4ccc(F)c(Cl)c4)C3)n2)cc1 (stereo not given)
→ i, 0.22
> Cc1nc(CCNC(=O)C2CCN(C(=O)c3ccc(Br)o3)CC2)cs1
→ i, -0.38
> CCOC(=O)C(C)Oc1cccc2c(=O)n(CC(=O)Nc3ccc4c(c3)OCCO4)ccc12 (stereo not given)
→ i, 0.57&0.72
> COc1ccc2nc(-n3nc(C)c4c3NC(=O)CC4c3ccc(O)c(OC)c3)sc2c1 (stereo not given)
→ i, -0.28
> COC(=O)c1ccc(C(=O)OC)c(NC(=O)c2nn(-c3ccc(C)cc3)c(=O)cc2OC)c1
→ i, -1
> CC1=C(c2ccc(C)c(C)c2)S(=O)(=O)N(Cc2ccc(C(=O)NCc3ccc(C)cc3)cc2)C1=O
→ i, -0.83
> Cc1nc(S(=O)(=O)N2CCC(C(=O)NCc3ccccc3Cl)CC2)cn1C
→ i, -2.2
> O=C1CSc2ccc(S(=O)(=O)N3CCC(C(=O)NC4CCCC4)CC3)cc2N1
→ i, 1.4
> COc1ccc2[nH]cc(CCNC(=O)c3ccc(NC(=O)C4=CSCCO4)cc3)c2c1
→ i, 10
> CCN1CCN(C(=O)CCn2cnc3oc(C)c(C)c3c2=O)CC1
→ i, -1.1
> COc1ccc(Nc2cc(-n3nc(C)cc3C)ncn2)cc1Cl
→ i, 0.92
> Cc1nc(C)c(C(=O)N2CCN(S(=O)(=O)c3c(C)nn(Cc4ccccc4)c3C)CC2)s1
→ i, -2.3
> Cn1cnc2cc(-c3noc(CNC(=O)Cc4ccc(Cl)cc4)n3)ccc21
→ i, 1.6
> CCOc1ccc(-n2nnc3c(N4CCN(C(=O)CC5CCCCC5)CC4)ncnc32)cc1
→ i, -0.29
> CC1=C(C(=O)Nc2cc(Cl)ccc2C)C2(CCN(S(C)(=O)=O)CC2)OC1=O
→ i, 0.83
> Cc1c(NC(=O)Nc2ccc3c(c2)OCO3)c(=O)n(-c2ccccc2)n1C
→ i, -0.26
> CSc1nc(NC2CCCC2)c([N+](=O)[O-])c(NC2CCCC2)n1
→ i, 0.02
> Cc1cc(N)n(-c2ccc(F)cc2)n1
→ i, 0.24
> CCn1c(CN(c2ccc(F)cc2)S(C)(=O)=O)nnc1SCc1nnc(-c2ccccc2)o1
→ i, -0.25
> CN(Cc1ccccc1)S(=O)(=O)c1ccc2c(c1)sc(=O)n2CC(=O)N1CCCC1
→ i, 0.63
> C=CCOc1cccc(C2CC(=O)Nc3c2c(C)nn3-c2ccc3nnc(C)n3n2)c1 (stereo not given)
→ i, -1.1
> COc1cc(NC(=O)Cn2c3ncccc3c(=O)n2-c2ccc(C)cc2)cc(OC)c1
→ i, -0.5
> CCn1ccc2cc(S(=O)(=O)N3CCCN(C(=O)Nc4ccc(Cl)cc4)CC3)ccc21
→ i, 0.37
> CC(C)CCOc1ccc(C2N=C(N)Nc3nc4ccccc4n32)cc1 (stereo not given)
→ i, -1.1
> Cc1ccc(CNc2ncc3c(=O)[nH]ccc3n2)cc1
→ i, 0.86
> CCN(CC)CCCNC(=O)c1cccn1-c1nnc(N2CCOCC2)s1
→ i, -0.64
> Cc1ccc(NC(=O)Cn2nnc(C(=O)O)c2C(=O)O)cc1F
→ i, -0.18
> CCCc1ccc(S(=O)(=O)N2CCCC2c2nnc(C(=O)Nc3cccc(F)c3)s2)cc1 (stereo not given)
→ i, 1.2
> COC(=O)c1ccc(NC(=O)Cn2nc3c4c5c(sc4ncn3c2=O)CCCC5)cc1
→ i, -0.5
> Cc1ccc(S(=O)(=O)c2nnn3c2nc(NCC2CCCO2)c2cc(Cl)ccc23)cc1C (stereo not given)
→ i, -0.32
> Cc1n[nH]c(C)c1S(=O)(=O)N1CCCC(c2nnc(C(=O)Nc3ccc(F)cc3)s2)C1 (stereo not given)
→ i, -1.4
> CN(C)S(=O)(=O)N(CC(=O)N1CCN(c2ncccn2)CC1)c1ccc(F)cc1
→ i, -0.17
> OC(CN1CCN(c2ccc(F)cc2)CC1)c1c[nH]c2ccc(F)cc12 (stereo not given)
→ i, -0.28
> COc1cccc(C(=O)NCCn2c(-c3ccccc3)nc3cccnc32)c1
→ i, -0.56
> Cc1ccc(C(=O)N2CCN(C(=O)c3cc4ccccc4[nH]3)CC2)cc1C
→ i, 0.24
> O=C(Nc1cc(F)ccc1F)c1cc2ccccn2n1
→ i, 0.79
> CCOC(=O)c1[nH]c(C)c(CN(C(=O)NC2CCCCC2)C2CCCCC2)c1C
→ i, -0.55
> CCOC(=O)C(C)NC(=O)N1CCCC1c1cc(CC)no1 (stereo not given)
→ i, 0.18
> Cc1nn(-c2ccc3nnc(C)n3n2)c2c1C(c1ccc(F)cc1F)CC(=O)N2 (stereo not given)
→ i, -0.63
> COc1ccc(/C(O)=C2\C(=O)C(=O)N(CCN3CCOCC3)C2c2ccc(Br)cc2)cc1 (stereo not given)
→ i, 0.33
> CCCS(=O)(=O)N1CCc2cc3cccc(C)c3nc21
→ i, 0.23

Additional records
Results follow in this order: Anaer choline gr, Anaer choline gr early
> COc1cc(CNC(=O)CCCCCCC(C)C)ccc1O
→ i, 0.54
> COCCn1c(=S)[nH]c2cc(Cl)ccc2c1=O
→ i, -1.4
> CCCCNC(=O)CCc1nnc2c(N3CCCCC3)nc3ccccc3n12
→ i, -0.22
> CCn1nnc(NCc2ccc(-c3ccc(Br)cc3Cl)o2)n1
→ i, 0.33
> CCCCOc1ccc(NC(=O)c2oc3ccc(C)cc3c2C)c2cccnc12
→ i, 1.2
> CC(C)n1c(=O)[nH]c2cc(-c3noc(CN4C(=O)COc5ccc(Cl)cc54)n3)ccc21
→ i, 1.2
> CC1Cc2ccccc2N1C(=O)c1cccc(N2C(=O)CCS2(=O)=O)c1 (stereo not given)
→ i, 0.08
> O=C(O)c1c2c(nc3ccc(S(=O)(=O)N4CCC(C(=O)NCc5ccccc5Cl)CC4)cc13)CCCC2
→ i, -0.89
> CCc1ccc(C2CC(=O)Nc3nc(N)[nH]c(=O)c32)cc1 (stereo not given)
→ i, 0.4
> CN(C)c1ccc(-c2nnc3sc(-c4ccncc4)nn23)cc1
→ i, 0.44
> O=C(c1cnc2ccc(F)cc2c1Nc1cccc(F)c1)N1CCCCC1
→ i, 0.45
> Cc1cc(-c2csc(S(=O)(=O)N3CCC(Cc4ccccc4)CC3)c2)on1
→ i, 1.3
> COc1ccc(C2=NN(c3nc(C)cs3)C(c3ccc(OC)c(OC)c3)C2)cc1OC (stereo not given)
→ i, 0.63
> Cc1ccc(-c2cc(C(F)(F)F)n3nc(C(=O)N4CCOCC4)nc3n2)cc1
→ i, 0.62
> CNC(=O)N1CCC(c2nc(C(C)C)cs2)CC1
→ i, 0.03
> Cc1ccc(C)c(N2CCN(c3ncc(S(=O)(=O)c4ccc(Cl)cc4)c(N)n3)CC2)c1
→ i, 0.94
> O=C(Cn1nc2n(Cc3ccccc3)c(=O)c3ccccc3n2c1=O)NC1CCCCC1
→ i, -0.17
> Cc1ccc(Cl)cc1NS(=O)(=O)c1cn(C)cn1
→ i, -1.6
> CC(C)c1ccc(Nc2c(-c3ccc(N(C)C)cc3)nc3ncccn23)cc1
→ i, -0.66
> COc1cc(-c2cc(C)no2)ccc1S(=O)(=O)NC1CCN(Cc2ccccc2)CC1
→ i, -1.2
> CC(Sc1nc2ccccc2[nH]1)C(=O)N/N=C/c1cc(Br)ccc1O (stereo not given)
→ i, -1.6
> Cc1c(N2CCN(C(=O)c3cc4cc(Cl)ccc4[nH]3)CC2)c(=O)n(C)c(=O)n1C
→ i, 0.64
> CCn1ccc2c(cc(C(=O)NCc3cccnc3)n2C)c1=O
→ i, -0.08
> COc1ccc(NC(=O)Cn2nc(C(=O)Nc3ccccc3)ccc2=O)cc1OC
→ i, 0.8
> COc1ccc(CCn2c(SCC(=O)Nc3cc(C)[nH]n3)nc3c(sc4ccccc43)c2=O)cc1OC
→ i, 0.94
> CN(CC(=O)N1CCCC1)C(=O)c1ccc(N2CCNCC2)c(NS(C)(=O)=O)c1
→ i, 0.24
> COc1cccc(Sc2nc3ccccc3n3c(=O)n(CC(=O)NC(C)C)nc23)c1
→ i, 0.15
> Cc1csc2nc(CN(C)c3ccccc3)cc(=O)n12
→ i, -0.8
> CCOC(=O)c1c(-c2ccc(C)cc2)csc1NC(=O)c1nc(S(=O)(=O)CC)ncc1Cl
→ i, -0.8
> COc1ccccc1N1C(=O)N(Cc2c(F)cccc2Cl)c2ccccc2S1(=O)=O
→ i, -0.24
> CC(C)NC(=O)CN1CCN(c2ccc(NC(=O)C3CCC3)c(C(=O)O)c2)CC1
→ i, 0.58

Part of the list above, tab-delimited:
Molecule	Anaer choline gr	Anaer choline gr early
COc1cccc(Sc2nc3ccccc3n3c(=O)n(CC(=O)NC(C)C)nc23)c1	i	0.15
Cc1csc2nc(CN(C)c3ccccc3)cc(=O)n12	i	-0.8
CCOC(=O)c1c(-c2ccc(C)cc2)csc1NC(=O)c1nc(S(=O)(=O)CC)ncc1Cl	i	-0.8

Some of the compounds tested, so the mix of outcomes need not match the whole.
